# Screening data from PubChem BioAssay.
# VCAM-1 inhibition: suppression of endothelial VCAM-1 upregulation – cell-based, plate reader, pooled HUVEC, TNFa stimulus (AID 454); HUVEC TNFa-induced VCAM-1 surface immunofluorescence, plate reader; numbers were filed only for top-ranked candidate wells; actives 0.2% (n = 10,000); inhibition, % at 5 µM;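 active = compound among top-ranked inhibitors of TNF-induced VCAM-1 adhesion protein staining, with the hit upheld by image or statistical review; inactive = the rest, including hits rejected on review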;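 note: 0% = TNFa with vehicle and 100% = cells without TNFa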
# VCAM-1 imaging: inhibitors of TNFa-induced VCAM-1 surface display, imaging, high-content imaging, pooled HUVEC, TNFa stimulus (AID 456). HUVEC TNFa-induced VCAM-1 surface expression, immunofluorescence imaging; numbers were filed only for top-ranked candidate wells. inhibition, % at 5 µM; hits with a dose series show IC50 in µM. actives 0.2% (n = 10,000);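 active = top tenth filtered wells with inhibition above zero that passed visual or statistical confirmation; inactive = the rest, including hits rejected on review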;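 note: 0% = stimulated vehicle wells and 100% = unstimulated cells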
# FPR ligand: human FPR ligand, with FPRL1 counter-screen. P21462. FPR-expressing cells, fluorescent ligand binding, flow cytometry. inhibition, %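 (tested at 6.7 µM)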. actives 0.74% (n = 24,000). AID 440;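 note: 0% = buffer wells and 100% = receptor blocker peptide wells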
# Target sequence (P21462 whole entry, looked up): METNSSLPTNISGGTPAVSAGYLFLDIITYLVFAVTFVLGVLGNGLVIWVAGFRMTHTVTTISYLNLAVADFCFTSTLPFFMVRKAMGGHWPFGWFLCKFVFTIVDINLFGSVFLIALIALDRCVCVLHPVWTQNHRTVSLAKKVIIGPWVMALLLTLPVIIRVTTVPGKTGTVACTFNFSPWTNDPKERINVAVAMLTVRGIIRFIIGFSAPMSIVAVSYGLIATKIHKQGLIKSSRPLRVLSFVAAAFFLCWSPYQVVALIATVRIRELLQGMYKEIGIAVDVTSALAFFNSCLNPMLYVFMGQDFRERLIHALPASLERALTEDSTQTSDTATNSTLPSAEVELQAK
# FPRL1 binder: binds the human formylpeptide receptor-like-1 FPRL1; P25090; inhibition, %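 (tested at 6.7 µM)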; actives 0.3% (n = 24,000); AID 441; FPRL1-expressing cells, fluorescent ligand binding inhibition, flow cytometry;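 note: 0% = buffer alone and 100% = receptor blocker peptide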
# Target sequence (P25090 whole entry, looked up): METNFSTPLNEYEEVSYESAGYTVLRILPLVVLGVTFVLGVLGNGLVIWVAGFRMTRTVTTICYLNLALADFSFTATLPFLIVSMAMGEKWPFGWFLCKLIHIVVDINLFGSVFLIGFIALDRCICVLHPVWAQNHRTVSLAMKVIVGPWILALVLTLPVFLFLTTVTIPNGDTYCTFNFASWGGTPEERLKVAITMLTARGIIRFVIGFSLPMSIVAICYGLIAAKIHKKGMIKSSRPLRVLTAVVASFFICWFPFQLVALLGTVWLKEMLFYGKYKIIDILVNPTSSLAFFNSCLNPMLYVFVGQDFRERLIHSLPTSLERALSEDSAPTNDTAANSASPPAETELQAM
# VCAM-1 up imaging: boosters of cytokine-driven VCAM-1 levels – imaging, high-content imaging, pooled HUVEC, TNFa stimulus (AID 457). actives 0.2% (n = 10,000). Pooled HUVEC, TNFa-induced VCAM-1 immunofluorescence imaging; hits of this screen are not shown here. calls only;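 active = a top-ranked rise in VCAM-1 staining upheld on image or statistical review; inactive = the rest, including candidates rejected on review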;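 note: compounds tested at 5 µM in the well; cells exposed to compound for 24 hours before fixing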
# * = called active by the depositor; i = inactive; . = not tested or not shown.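 Rule for the calls, unless noted: active = mean above 30%; inconclusive = self-fluorescent; inactive = the rest.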 Not all compounds are listed, so the mix of outcomes need not match the whole.
SMILES,VCAM-1 inhibition,VCAM-1 imaging,FPR ligand,FPRL1 binder,VCAM-1 up imaging
O=C(c1cc(S(=O)(=O)N2CCOCC2)ccc1F)N1CCCc2ccccc21,i,i,2,-6,i
Cc1ccccc1-c1nc(CN2CCC(C(=O)N3CCC(C(N)=O)CC3)CC2)c(C)o1,i,i,2,-2,i
CC(C)(C)NC(=O)Cn1nnnc1-c1nonc1N,i,i,-5,-4,i
Cc1ccc(-c2nc(CS(=O)CC(=O)NCc3ccccc3)c(C)o2)cc1 (stereo unspecified),.,.,3,6,.
CCCn1cc(SCC(N)=O)c2ccccc21,i,i,10,1,i
O=C(CCNC(=O)c1ccc(Br)o1)NC1CCCC1,i,i,0,4,i
COCCn1nnnc1SCC(=O)N1CCCCC1,i,i,21,5,i
COc1cccc(C2=NOC(C(=O)Nc3cccc(C(C)=O)c3)C2)c1OC (stereo unspecified),.,.,-1,4,.
O=C(NCCCN1CCCCCC1)C1CC(=O)N(CCc2ccccc2)C1 (stereo unspecified),.,.,-1,0,.
CCc1nn2c(=O)cc(CSc3nc4sc5c(c4c(=O)n3C)CCCC5)nc2s1,i,i,19,-2,i
O=C(c1ncc[nH]1)c1ccccc1C(=O)N1CCOCC1,i,i,4,9,i
CCOC(=O)c1sc(NS(=O)(=O)c2ccc(NC(C)=O)cc2)nc1C,i,i,29,21,i
Cc1ccccc1S(=O)(=O)Cc1ccc(C(=O)N2CCN(c3ccc(F)cc3)CC2)o1,.,.,0,3,.
CSc1nsc(SC)c1C(=O)OCC(F)(F)F,.,.,0,-13,.
C=CCSc1nc2sc(C)c(C)c2c(=O)[nH]1,i,i,2,-3,i
COc1cccc(OCC(O)CN2CCC(C)CC2)c1 (stereo unspecified),.,.,-5,-2,.
COc1ccc(S(=O)(=O)N2CCN(CC(=O)Nc3cc(OC)cc(OC)c3)CC2)cc1,.,.,-3,-5,.
CCc1oc2ccccc2c1C(=O)c1cc(Br)c(O)c(Br)c1,i,i,10,7,i
COc1ccc(OC)c(NC(=O)CSc2nnc(Cc3cccn3C)n2-c2ccc(F)cc2)c1,i,i,5,3,i
CCOCCCNC(=O)Cn1ncc2c(=O)oc3ccccc3c21,i,i,-4,-3,i
CN(C)CCN1C(=O)c2oc3ccc(Cl)cc3c(=O)c2C1c1cccc(Br)c1 (stereo unspecified),i,i,4,6,i
O=C(O)CCCn1nc(-c2ccccc2)c2ccccc21,.,.,0,-3,.
CCC(NS(=O)(=O)c1ccc(C)cc1)C(=O)N1CCC2(O)CCCCC2C1 (stereo unspecified),i,i,-7,-1,i
COc1cccc(-n2c(SCC(=O)Nc3cc(C)on3)nc3c([nH]c4ccccc43)c2=O)c1,i,i,8,2,i
CC1CCN(c2c(NCc3ccc(C(=O)NCC4COc5ccccc5O4)cc3)c(=O)c2=O)CC1 (stereo unspecified),.,.,-2,-1,.
# Next part
SMILES,VCAM-1 inhibition,VCAM-1 imaging,FPR ligand,FPRL1 binder,VCAM-1 up imaging
CC(=O)c1ccc(N2CCN(C(=O)c3cc4c(-c5ccccc5F)nn(C)c4s3)CC2)cc1,.,.,-10,-11,.
CC1(C)CC(=O)CC(=Nc2ccc(C(=O)O)cc2)C1,i,i,0,-2,i
Cc1ccccc1Cn1cc(S(=O)(=O)CC(=O)N2CCCCC2)c2ccccc21,.,.,0,13,.
CCOC(=O)Cc1c(C)nc2c(-c3ccc(Cl)cc3)c(C)[nH]n2c1=O,.,.,14,-4,.
O=C(CSc1nnc(-c2ccco2)n1CC1CCCO1)N1CCCCC1 (stereo unspecified),i,i,14,-5,i
Cc1c(NC(=O)c2noc3c2CCc2ccccc2-3)c(=O)n(-c2ccccc2)n1C,i,i,11,3,i
CCCCOC(=O)c1cccc(NC(=O)CC)c1,i,i,-2,2,i
CCOC(=O)N1CCN(C(=O)c2cn(CC)c3ccc(S(=O)(=O)N4CCCC4)cc3c2=O)CC1,.,.,-1,0,.
Cc1ccc2oc(=O)c3cnn(CC(=O)N4CCCCCC4)c3c2c1,.,.,-4,0,.
COc1ccc(-n2nnnc2SCC(=O)c2ccc(O)c(O)c2)cc1,i,i,16,4,i
COc1ccc2c(=O)c(-c3ccccc3)c(C)oc2c1,.,.,-6,-7,.
O=C(NCC1CCCO1)c1ccc2nc(N3CCCCC3)sc2c1 (stereo unspecified),.,.,-3,-7,.
Cc1cc(C)c2c(=O)[nH]c(=O)n(Cc3ccccc3)c2n1,i,i,8,1,i
COc1ccc(C(=O)N2CCN(c3c(C)cccc3C)CC2)cc1OC,.,.,0,-2,.
CCOC(=O)N1CCN(C(=O)c2cn(C)c(=O)c3c2c2ccccc2n3C)CC1,.,.,3,4,.
CCc1nnc2c3cnn(-c4ccccc4)c3ncn12,i,i,4,1,i
O=C(CCn1c(=O)c2ccccc2n(Cc2cc(=O)n3ccccc3n2)c1=O)NCc1ccco1,.,.,2,-8,.
CC(=O)Nc1ccc(S(=O)(=O)N2CCN(c3cc(C)ccc3C)CC2)cc1,.,.,0,-2,.
Cc1nn(-c2ccccc2)c(C)c1NC(=O)Cc1cccs1,.,.,3,5,.
CCOc1ccccc1Nc1ccc(C(=O)O)cc1NC(C)=O,.,.,2,5,.
CC(NC(=O)c1ccco1)c1ccc2c(c1)OCCO2 (stereo unspecified),i,i,-7,-4,i
CCc1cc(C(=O)OC)c(NC(=O)CCC(=O)O)s1,i,i,3,1,i
COCCN1Cc2cccc(C(=O)Nc3cc(C)cc(C)c3)c2C1=O,.,.,1,1,.
N#CCc1c(C#N)c(N)nc(N2CCN(S(=O)(=O)c3ccccc3)CC2)c1C#N,i,i,11,6,i
C[C@H](NC(=O)NCc1cccs1)C(=O)O,i,i,-5,0,i

# Full records, looked up by structure:
# `C[C@H](NC(=O)NCc1cccs1)C(=O)O` reads VCAM-1 inhibition: i; VCAM-1 imaging: i; FPR ligand: -5; FPRL1 binder: 0; VCAM-1 up imaging: i
# `CCOC(=O)N1CCN(C(=O)c2cn(CC)c3ccc(S(=O)(=O)N4CCCC4)cc3c2=O)CC1` reads VCAM-1 inhibition: .; VCAM-1 imaging: .; FPR ligand: -1; FPRL1 binder: 0; VCAM-1 up imaging: .

# Other records
SMILES,VCAM-1 inhibition,VCAM-1 imaging,FPR ligand,FPRL1 binder,VCAM-1 up imaging
COC(=O)c1c(N2C(=O)CCC2=O)sc2c1CCCC2,.,.,0,11,.
CC(C)(C)C(=O)CCN1C(=O)C2(OCCO2)c2ccccc21,i,i,-8,-10,i
NC(=O)C1(N2CCCCC2)CCN(C2CC(=O)N(Cc3cccs3)C2=O)CC1 (stereo unspecified),i,i,2,4,i
O=C1NC2=C(C(=O)c3ccccc32)C(c2ccccc2)N1 (stereo unspecified),.,.,1,4,.
O=C(CCCNS(=O)(=O)c1cccc2nsnc12)NCc1ccc(Cl)cc1,.,.,1,-4,.
O=C(CCn1nc(-c2ccccc2)ccc1=O)N1CCCC1,i,i,6,21,i
CCN(CC)c1ccc(NC(=O)CN2CCN(CC(=O)Nc3ccccc3F)CC2)cc1,i,i,-3,-2,i
CC(C)(C)NC(=O)C1CCCN(S(=O)(=O)c2cccc3cccnc23)C1 (stereo unspecified),.,.,35*,27,.
COC(=O)[C@@H](N)Cc1ccc(O)cc1,i,i,-4,0,i
O=C1CC2CS(=O)(=O)CC2N1c1ccc(Cl)cc1Cl (stereo unspecified),.,.,1,0,.
CCOC(=O)N1CCC(NC(=O)C2CCCN(Cc3nc(-c4cccc(Cl)c4)oc3C)C2)CC1 (stereo unspecified),.,.,0,0,.
O=C(CSCCc1ccccn1)Nc1cccnc1,.,.,-7,-10,.
COc1cccc(-n2ccnc2SCC(=O)N2CCc3ccccc32)c1,i,i,15,1,i
COc1ccc(C2/C(=C(/O)c3ccccc3)C(=O)C(=O)N2CO)cc1 (stereo unspecified),.,.,5,-3,.
CCOc1ccc(-c2nc(CSCC(=O)NCc3ccco3)c(C)o2)cc1,.,.,1,-5,.
Cc1ccc(C2CC(C(F)(F)F)n3nc(C(=O)NCCN4CCOCC4)cc3N2)cc1 (stereo unspecified),.,.,-3,-2,.
Cc1cc(N(CN2CCCC2=O)C(=O)c2ccccc2)no1,.,.,-1,1,.
O=c1cc(CSc2ccccn2)c2ccccc2[nH]1,i,i,-3,0,i
COc1ccccc1NC(=O)CCNC(=O)Cn1ccc2ccccc2c1=O,.,.,1,-1,.
CC1CCCN(CCC(=O)c2ccc(Br)cc2)C1 (stereo unspecified),.,.,9,6,.
COc1ccc(NC(=O)C2CCCN(S(=O)(=O)c3cccc4cccnc34)C2)c(OC)c1 (stereo unspecified),.,.,2,-3,.
O=C(Nc1ccc(Cl)c(Cl)c1)N(Cc1cccnc1)Cc1ccco1,.,.,-4,2,.
COc1ccc2cc(CCNC(=O)C3CC3)c(=O)[nH]c2c1,.,.,-7,6,.
Cn1c(=O)c2c(nc(NCCNC(=O)c3ccco3)n2Cc2ccccc2Cl)n(C)c1=O,i,i,-6,-2,i
CC(=O)N1CCN=C1SCc1ccc(Cl)cc1,.,.,-2,0,.

# 4 of these compounds, reformatted:
# Values run as follows: VCAM-1 inhibition | VCAM-1 imaging | FPR ligand | FPRL1 binder | VCAM-1 up imaging
Cc1ccc(C2CC(C(F)(F)F)n3nc(C(=O)NCCN4CCOCC4)cc3N2)cc1 (stereo unspecified)
→ . | . | -3 | -2 | .
Cc1cc(N(CN2CCCC2=O)C(=O)c2ccccc2)no1
→ . | . | -1 | 1 | .
O=c1cc(CSc2ccccn2)c2ccccc2[nH]1
→ i | i | -3 | 0 | i
COc1ccccc1NC(=O)CCNC(=O)Cn1ccc2ccccc2c1=O
→ . | . | 1 | -1 | .

# Next part
SMILES,VCAM-1 inhibition,VCAM-1 imaging,FPR ligand,FPRL1 binder,VCAM-1 up imaging
COC(=O)Nc1cc(C)nc2ccccc12,.,.,9,8,.
O=C(NCc1cccnc1)NC1(c2ccccc2)CC1,.,.,-3,-5,.
O=C(C1CC1)N1CCc2cc(Br)cc(S(=O)(=O)NC3CCCCC3)c21,.,.,-2,3,.
CCCCn1c(CCC(=O)O)ccc1-c1cccs1,.,.,3,5,.
O=C(C1CCN(c2nnc(-n3cccc3)s2)CC1)N1CCN(Cc2ccc3c(c2)OCO3)CC1,i,i,-2,2,i
Cc1oc(-c2cccc(Cl)c2)nc1CN1CCCC(C(=O)NC(C)c2ccc3c(c2)OCCO3)C1 (stereo unspecified),.,.,6,2,.
COc1ccc(NC(=O)CCCn2c(=O)[nH]c3ccccc3c2=O)cc1,.,.,-3,0,.
O=C(CN1CCN(C(=O)c2ccco2)CC1)Nc1c2c(nc3c1CCC3)CCCC2,.,.,-4,3,.
CCOCCCNCc1ccc(OC)c(OC)c1,.,.,4,-5,.
CCCCN1C(=O)C2C(C(=O)Nc3cccc(OC)c3)C3C=CC2(O3)C1C(=O)NC1CCCCC1C (stereo unspecified),i,i,2,1,i
O=C(CCNS(=O)(=O)c1ccc(Br)s1)N1CCN(c2ccccc2)CC1,.,.,1,1,.
CCOC(=O)N1CCC(NC(=O)CSc2cc(=O)n(C)c3ccc(Cl)cc23)CC1,.,.,-1,0,.
C=CCOC(=O)C1C(=O)CC(C)(O)C(C(=O)OCC=C)C1c1ccc(OC)cc1 (stereo unspecified),.,.,-17,-3,.
COc1ccccc1C1C(C(N)=O)=C(C)Nc2nc(-c3ccc(Cl)cc3)nn21 (stereo unspecified),.,.,-6,7,.
Cc1onc(-c2ccccc2Cl)c1C(=O)NCc1cccnc1,i,i,-1,0,i
Cc1cc(N(CN2CCCC2=O)C(=O)c2ccc(F)cc2)no1,.,.,-1,-10,.
CCOC(=O)C1CCN(C(c2cccnc2)c2c(NC(=O)c3ccco3)sc(C)c2C)CC1 (stereo unspecified),.,.,-1,-2,.
CCC(=O)N1CCCc2cc(S(=O)(=O)N3CCCc4ccccc43)ccc21,i,i,4,0,i
CCOc1ccc(N(CC(=O)NC2CCCCC2)S(=O)(=O)c2c(C)noc2C)cc1,i,i,3,-1,i
CCCNC(=O)NS(=O)(=O)c1ccc(Cl)cc1,i,i,-8,-1,i
COc1ccc(OC)c(Nc2cc(C)nc3nc(C)nn23)c1,.,.,-4,-4,.
CCc1cc2c(=O)c(-c3nc4ccccc4n3C)c(C)oc2c(CN2CCOCC2)c1O,.,.,-1,-1,.
O=C(CCCN1C(=O)C2C3C=CC(C3)C2C1=O)N1CCN(c2ccccc2)CC1 (stereo unspecified),.,.,-1,-2,.
CC(C)C(NC(=O)C1CCCCC1)C(=O)Nc1ccncc1 (stereo unspecified),.,.,1,2,.
O=C(Nc1ccccc1)c1cnc[nH]1,.,.,1,-2,.
Cn1c2ccccc2c2cnn(CC(=O)O)c(=O)c21,.,.,4,6,.
CCc1ccccc1NC(=O)c1cc(C2CC2)on1,.,.,6,1,.
CC1CCCN(C(=O)c2cc(F)c(F)cc2Cl)C1 (stereo unspecified),i,i,-2,-5,i
C(/CCc1ccccc1)=N\n1cnnc1,i,i,-4,-2,i
